# Screens deposited in PubChem by Southern Research Specialized Biocontainment Screening Center.
# Mtb bLac sens = beta-lactam sensitization of Mtb H37Rv | M. tuberculosis H37Rv growth with meropenem, percent inhibition; hits of this screen are not shown here | inhibition, % at 25 µM | 0.27% of 330,000 active;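 active = about 74% or more and at least 40 points above the plate without the antibiotic, then above 30% in a dose series; inconclusive = first-round hits that could not be retested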;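 also: growth measured after seven days incubation then overnight dye step; 0% = bacteria only wells and 100% = bacteria with antibiotic; twin plates without the antibiotic show which effects depend on it; some results filed as inactive read as strong as hits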
# The depositor's hits bear a star; ? = inconclusive.
Structure	Mtb bLac sens
CCN(C[C@H]1N[C@@](CC)(C(=O)OC)[C@H]2C(=O)N(C)C(=O)[C@@H]12)S(=O)(=O)c1ccc(C(C)(C)C)cc1	-1
Cc1nnc(SCC(=O)NNC(=O)c2ccccc2)n1Cc1ccccc1	-5
CN(CC(=O)Nc1ccc(F)cc1)C(=O)Cn1nnc(-c2ccccc2)n1	-2
COc1ccc(CN(C)C(C)C(=O)N(C)CC(=O)Nc2ccc(C)cc2)cc1F (stereo not given)	-15
COC(=O)[C@]1(Cc2ccccc2)N[C@H](CN(C)C(=O)COc2ccccc2)[C@@H]2C(=O)N(C)C(=O)[C@@H]21	7
Cc1cnc(NC(=O)C2CC(=O)N(c3ccc4c(c3)OCCO4)C2)s1 (stereo not given)	3
CN(C(=O)c1ccc(NC(=O)Cc2cccc([N+](=O)[O-])c2)cc1)C1CC1	-2
COc1cccc(C(=O)C[n+]2cccc3cc(OC)ccc32)c1	13

# (list continues)
Structure	Mtb bLac sens
O=C(CN1CCN(C(=O)c2cccc(S(=O)(=O)N3CCCC3)c2)CC1)Nc1ccc(F)cc1	8
O=S(=O)(c1ccc(F)cc1)N1CCN(S(=O)(=O)c2ccc3c(c2)OCCO3)CC1	4
COc1ccc(Cl)cc1NC(=O)COC(=O)c1ccc(C)o1	-1
COc1ccc(N(CC(=O)Nc2ccccc2C(=O)N2CCCC2)S(=O)(=O)c2ccccc2)cc1	?
COc1cc(OC)c(N2CC(C(=O)NCCC3=CCCCC3)CC2=O)cc1Cl (stereo not given)	-9
O=C(NCC1(N2CCCCC2)CCCCC1)c1cccc(S(=O)(=O)Nc2ccc(F)cc2)c1	-6
Cc1ccc(S(=O)(=O)N2CCN(CCc3ccncc3)CC2)cc1	-12
O=C1C=C(c2cccc(CO)c2)C[C@@H](c2ccc(F)cc2)C1	6

# Brought forward from above: 7 entries; new compounds follow.
Structure	Mtb bLac sens
O=S(=O)(c1ccc(F)cc1)N1CCN(S(=O)(=O)c2ccc3c(c2)OCCO3)CC1	4
COc1ccc(Cl)cc1NC(=O)COC(=O)c1ccc(C)o1	-1
COc1ccc(N(CC(=O)Nc2ccccc2C(=O)N2CCCC2)S(=O)(=O)c2ccccc2)cc1	?
COc1cc(OC)c(N2CC(C(=O)NCCC3=CCCCC3)CC2=O)cc1Cl (stereo not given)	-9
O=C(NCC1(N2CCCCC2)CCCCC1)c1cccc(S(=O)(=O)Nc2ccc(F)cc2)c1	-6
Cc1ccc(S(=O)(=O)N2CCN(CCc3ccncc3)CC2)cc1	-12
O=C1C=C(c2cccc(CO)c2)C[C@@H](c2ccc(F)cc2)C1	6
CCOc1cccc(/C=C(\C#N)C(=O)NC2CC2)c1	4
COc1ccc(-c2ccc3oc(-c4ccsc4)cc(=O)c3c2)cn1	2
C=C(CC[C@@H](O)C(C)(C)O)[C@H]1CC[C@]2(C)[C@@H]1CCC1[C@@]3(C)CCC(=O)C(C)(C)C3CC[C@]12C (stereo not given in full)	6
C=CCn1c(SCC(=O)N(CC)C2CCS(=O)(=O)C2)nc2sc3c(c2c1=O)CCC3 (stereo not given)	-4
CN(Cc1ccc(Cl)c(Cl)c1)C(=O)C1CSC2(C)CCC(=O)N12 (stereo not given)	-2
O=C(CN1C(=O)c2ccccc2C1=O)OCc1nc2ccsc2c(=O)[nH]1	-8
FC(F)(F)c1cc(CCN2CCNC[C@@H]2CC2CCCCC2)cc(C(F)(F)F)c1	100
O=C(NCC(=O)N1CCN(c2ncccn2)CC1)c1ccccc1OC(F)F	-3

# Other records.
Structure	Mtb bLac sens
CC(=O)c1c(C)[nH]c(C(=O)OCC(=O)N2CCc3ccccc3C2)c1C	0
Cc1c(Cl)cnc(NC(=O)COC(=O)[C@H](C)NC(=O)c2ccccc2)c1Cl	0
Cc1ccc(NC(=O)COC(=O)C2CCC2)cc1S(=O)(=O)N1CCOCC1	-2
CCN(C(=O)COC(=O)c1[nH]c(C)c(C(C)=O)c1C)c1c(N)n(Cc2ccccc2)c(=O)[nH]c1=O	8
COc1ccccc1CN1CC(C(=O)N2CCCCCCC2)CCC1=O (stereo not given)	?
COc1cc(OC)cc(-c2oc(=O)c3cc(OC)c(OC)cc3c2C#CCCCO)c1	5
N#Cc1ccccc1NC(=O)COc1ccccc1C(=O)Nc1ccccc1	-8
CSCC[C@H](NC(=O)OC(C)(C)C)C(=O)N1CCC(C(=O)N[C@@H](C)C(=O)NCc2ccc(F)cc2)CC1	-6

# Next compounds follow:
Structure	Mtb bLac sens
Cc1ccc(C)c(NC(=O)CN(C)C(=O)C2COc3ccccc3O2)c1 (stereo not given)	-9
CCCCCn1c(=O)[nH]c2cc(C(=O)NCCCN3CCCCC3C)ccc2c1=O (stereo not given)	5
CC(=O)NCCc1c(C)n(Cc2ccccc2)c2ccccc12	2
Cc1ccc(S(=O)(=O)N2[C@@H](c3ccc(Br)cc3)C(C(=O)O)=CC[C@H]2c2ccc3c(c2)OCO3)cc1	-2
CCOC(=O)/C(C#N)=C/Nc1ccccc1NS(=O)(=O)c1ccc2c(c1)OCCO2	-6
O=C(/C=C/c1ccc([N+](=O)[O-])cc1)OCC(=O)N1CCOCC1	-4
CCOc1ccc(S(=O)(=O)N=C(c2ccccc2)N2CCOCC2)cc1	-6
COc1cc(NC(=O)[C@@H]2CCCN(S(=O)(=O)c3cccc4cccnc34)C2)cc(OC)c1OC	0

# Following part:
Structure	Mtb bLac sens
O=C(CN1C(=O)NC2(CCCc3ccccc32)C1=O)c1ccccc1F (stereo not given)	0
CC1CC(C)CN(C(=O)COC(=O)CN2C(=O)c3ccccc3C2=O)C1 (stereo not given)	2
CC(C)(C)OC(=O)N1CCN(C(=O)c2ncn(Cc3ccccc3)c2C(=O)N2CCN(C(=O)OC(C)(C)C)CC2)CC1	-2
Cn1c(SCC(=O)NC2CCCC2)nnc1C(F)(F)F	3
Cc1noc(C)c1NC(=O)Nc1ccc2c(c1)C(=O)N([C@H](C)CO)C[C@H](C)[C@@H](CN(C)S(=O)(=O)c1ccccc1)O2	4
COc1cccc(CNc2ccc(S(=O)(=O)N3CCCC3)cn2)c1	-9
COc1ccc(C(=O)COC(=O)c2cc3ccccc3oc2=O)c(OC)c1	46
O=C1CCC(C(=O)OC(C(=O)Nc2cc(Cl)cc(Cl)c2)c2ccccc2)=NN1 (stereo not given)	2

# (cont.)
Structure	Mtb bLac sens
COCCNC(=O)C(=O)NCC1OCCN1S(=O)(=O)c1ccc2c(c1)OCCO2 (stereo not given)	-7
O=C(COc1cccc(F)c1)Nc1nc(-c2cccnc2)cs1	-9
Cc1ccc(NC(=O)C2CC(=O)N(C(C)c3ccccc3)C2)cc1 (stereo not given)	-11
COc1cc(C)c(NC(=O)C2CCN(S(=O)(=O)c3cccs3)CC2)cc1OC	-5
COc1cccc(C(=O)OCC(=O)N2CCc3ccccc3C2)c1	-8
Cc1ccc(C(=O)CCC(=O)Nc2ncccc2C)cc1	5
N#CC1(NC(=O)CSc2nncn2-c2ccccc2F)CCCC1	-5
CCOc1cc(/C=N/NC(=O)c2ccc(NC(=O)C3CC3)cc2)ccc1O	-1

# Next section:
Structure	Mtb bLac sens
COc1ccccc1C(=O)Nc1cc(C)on1	-4
N#Cc1ccc(OCC(=O)NNC(=O)C2CCCCC2)cc1	5
O=C(NC[C@H]1CCCO1)c1cccc2c1C(=O)c1ccc(-c3ccc(F)cc3OCc3ccccc3)cc1S2(=O)=O	2
COc1cccc(C(=O)N2CCN(Cc3ccc(OC)cc3OC)CC2)c1	-1
COC(=O)c1ccc(-c2c(-c3ccccc3)ncc3cc(OC)c(OC)cc23)cc1	87
COc1ccc(S(=O)(=O)Nc2cccc3c2O[C@H](CN(C)Cc2ccc(Oc4ccccc4)cc2)[C@@H](C)CN([C@H](C)CO)C3=O)cc1	-5
CN(C(=O)c1ccco1)c1ccccc1C(=O)O	-4
Cc1c(C(=O)O)sc(S(=O)(=O)N2CCN(C(=O)Cc3ccc(F)cc3)CC2)c1C(=O)O	0

# (next part)
Structure	Mtb bLac sens
O=C(CN1C(=O)c2cccc([N+](=O)[O-])c2C1=O)NNC(=O)c1ccc(F)cc1	-1
CCOc1ccc(NC(=O)CN(C)C(=O)C2CC(=O)N(Cc3ccco3)C2)cc1OCC (stereo not given)	3
COc1ccc(S(=O)(=O)N2CCCCC2)cc1NC(=O)Cn1cnc2ccccc2c1=O	-4
C[C@H](CO)N1C[C@H](C)[C@@H](CN(C)S(=O)(=O)c2cccs2)Oc2c(NC(=O)C3CCCCC3)cccc2C1=O	-3
CC1CC(C)(C)CC2(C1)NC(=O)N(CC(=O)Nc1c(F)cccc1F)C2=O (stereo not given)	4
CC(=O)c1ccc(S(=O)(=O)NC2CCSc3ccccc32)cc1 (stereo not given)	-4
CN(C)C(CNC(=O)c1cc(-c2ccco2)nc2ccccc12)c1ccccc1 (stereo not given)	-17
Cc1ccc(C(=O)OC(C)C(=O)NC2CCCCC2)cc1S(=O)(=O)N1CCCCC1 (stereo not given)	4

# Next part:
Structure	Mtb bLac sens
C1CCC2CCCCC2C1 (stereo not given)	2
CNCCNC[C@H](Cc1cccc2ccccc12)NCCc1ccccc1	-4
Nn1c(SCC(=O)NC2CCCCCC2)nnc1C(F)(F)F	2
Cc1ccc(C)c(S(=O)(=O)N2CCN(Cc3cc4c(cc3O)OCO4)CC2)c1	-3
C#CCOCCOCCOCCNc1nc(N2CCN(C(=O)CCCCCCCCCCNC(=O)[C@@H](CCSC)n3cc(CCO)nn3)CC2)nc(N2CCN(C(=O)CCCCCCCCCCNC(=O)[C@H](CCCN=C(N)N)n3cc(C[C@@H](C)CC)nn3)CC2)n1	99
O=C(NC1CCCC(C(F)(F)F)C1)c1ccc([N+](=O)[O-])o1 (stereo not given)	100
O=C(NCCOc1ccc(Cl)cc1)c1ccc2c(c1)OCCO2	2
CN(C)C1=NCCN1CCc1ccccc1	7

# New compounds follow:
Structure	Mtb bLac sens
CC(C)CCN1CCC(Cc2ccccc2)(NC(=O)c2ccccc2)C1=O (stereo not given)	7
COc1ccc(S(=O)(=O)N(C)CC(=O)N2CCCC2)cc1	-5
C=C1C(O)[C@@H]2O[C@]3(CC[C@H](/C=C/C(C)[C@@H]4CC(C)=CC5(O[C@H](C[C@@](C)(O)C(=O)O)CCC5O)O4)O3)CC[C@H]2O[C@@H]1C(O)CC(C)[C@H]1OC2(CCCCO2)CCC1C (stereo not given in full)	9
COc1ccc(-c2nc3cnccn3c2NC2CCCCC2)cc1-c1cccc(Cl)c1	81
CC(C)(C)OC(=O)C[C@@H]1C/C=C\C[C@H](CC(=O)N(CCO)Cc2ccccc2)C(=O)N[C@H](C(C)(C)C)COC1=O	-4
Cc1cnc(C(=O)OCc2nc3ccsc3c(=O)[nH]2)cn1	1
CN(c1ccccc1)S(=O)(=O)c1cccc(NC(=O)C2CCCO2)c1 (stereo not given)	-5
CCN1C(=NCCCOC(C)C)N[C@@H](c2ccccc2)[C@H](C(=O)OC)[C@H]1C	0

# Next records follow.
Structure	Mtb bLac sens
CC(=O)OCC(COC(C)=O)OC(C)=O	3
COc1ccc(-c2c(-c3cc(OC)cc(OC)c3)n(C)c3ccc(-c4ccc5cc[nH]c5c4)cc23)cc1	0
Cc1c(NC(=O)COC(=O)/C=C/c2cccc(Cl)c2)c(=O)n(-c2ccccc2)n1C	1
COc1ccccc1C(=O)OCC(=O)NC(=O)NC1CCCC1	-9
O=C(c1ccc(Cl)nc1)N1CCN(S(=O)(=O)c2ccc3c(c2)OCCO3)CC1	-5
Cc1ccc(C)c(N2N=C(C(=O)Nc3cccc(S(=O)(=O)N4CCCCC4)c3)CCC2=O)c1	-5
Cc1cc(=O)[nH]c(SCC(=O)N2CCN(C(=O)c3ccco3)CC2)n1	4
CC(=O)c1ccc(OCCCC(=O)Nc2cccc(S(=O)(=O)N3CCCCCC3)c2)cc1	3

# (more compounds)
Structure	Mtb bLac sens
COc1ccc(NS(=O)(=O)c2ccc(C(=O)OC(C)C(=O)N3CCOCC3)cc2)cc1 (stereo not given)	7
CCC(=O)c1cn(CC(=O)Nc2cccc(C)c2C)c2ccccc12	5
CN(Cc1ccccc1F)C(=O)CCNC(=O)c1ccc(C(C)(C)C)cc1	-1
O=C(COc1ccc(C(=O)c2ccccc2)cc1)Nc1cccnc1	93
COC(C)(C)CCCC(C)C/C=C/C(C)=C/C(=O)OC(C)C (stereo not given)	11
COc1cc(/C=C/C(=O)Nc2cccc(S(=O)(=O)N3CCOCC3)c2)ccc1OCC#N	0
COc1cccc(/C=C/C(=O)OCC(=O)c2ccc3c(c2)NC(=O)CO3)c1	-5
Cc1ccc(NC(=O)CN(C)C(=O)Cn2c(=O)oc3ccccc32)cc1	-3

# The list goes on.
Structure	Mtb bLac sens
O=S(=O)(NCc1ccc(Cl)cc1Cl)c1cccs1	4
O=C(COC(=O)c1cccnc1Cl)NCCCc1ccccc1	4
COc1cc(C2=CN(Cc3ccccc3)CCC2=O)cc(OC)c1OC	-3
CCN(CC)C(=O)c1[nH]cnc1C(=O)Nc1ccc(Cl)cc1	67
N#CC(C#N)=C(N)/C(C#N)=C/c1cc(O)c(O)c(O)c1	4
COc1cc(OC)cc(-c2c(-c3ccc(F)cc3)c3cc(-c4ccc(OC)nc4)ccc3n2C)c1	-11
C[C@H]1COC(=O)CC/C=C\C[C@H](CC(=O)N(CCO)Cc2ccccc2)C(=O)N1	2
CCc1c(C2(O)CCCCC2)[nH]c2cnccc12	6

# The list continues:
Structure	Mtb bLac sens
CCN(C(=O)COC(=O)c1ccc(C=O)cc1)c1c(N)n(Cc2ccccc2)c(=O)[nH]c1=O	-6
COc1cccc2sc3cc(C#CC4(O)CCCCC4)ccc3c(=O)c12	62
O=C(Cc1ccc(Cl)cc1)SCc1ccccc1	-8
COc1cc(C(=O)NNC(=O)c2ccc(F)cc2)ccc1OCC(=O)N1CCOCC1	0
O=C(COC(=O)c1ccc(S(=O)(=O)N2CCOCC2)cc1)Nc1ccccc1OC(F)F	1
COc1ccc(Cl)cc1NC(=O)CN(C)C(=O)CCc1nc2ccccc2c(=O)[nH]1	-1

# Not all compounds are listed. The share of hits here may be higher or lower than overall.
